Screens (PubChem BioAssay)
A1 apoptosis 2: compounds inhibiting A1, read as caspase activation | caspase activation, % (test concentration not listed) | MEF A1-2A-BIM cells, caspase-Glo luminescence, 3 h; percent of clofoctol response, DMSO zero | AID 2465 | 24,000 tested, under 10 active; in the data active means caspase activation above about 5.9%;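 further: wells of about 30 µL received 50 nL stock; the first replicate is given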
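Test system – A1-2A-BIM-expressing MEF cells · Input – 2500 cells/well · Medium – RPMI-1640 growth medium with 10% FBS · Compound dosing – 50 nL pinned compound · Timing – 3 h compound exposure at 37 °C · Technique – Caspase-Glo luminescence (DEVD substrate) · Evaluation – Caspase-3/7 activity from luminescence increase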
Active calls of the source: *. An excerpt; the hit share may differ from the screen's.

For C[C@@H]1CN([C@H](C)CO)C(=O)c2cccc(NC(=O)NC3CCCCC3)c2O[C@H]1CN(C)Cc1ccc(C(F)(F)F)cc1 the results were A1 apoptosis 2 0.1.
`C[C@@H]1CN([C@H](C)CO)C(=O)c2cccc(NC(=O)Nc3ccc4c(c3)OCO4)c2O[C@H]1CN(C)Cc1ccncc1` gave A1 apoptosis 2 -0.8.
For COc1ccc(NC(=O)N(C)C[C@H]2Oc3ccc(NC(=O)Cc4ccccc4)cc3C(=O)N([C@@H](C)CO)C[C@H]2C)cc1 the results were A1 apoptosis 2 0.6.
`O=C1O[C@H](c2ccccc2)[C@H](c2ccccc2)N2[C@H]1[C@@H](C(=O)N1CCN(c3ncccn3)CC1)[C@]1(C(=O)Nc3ccc(C#CC4(O)CCCCCC4)cc31)[C@H]2c1ccc(O)cc1` gave A1 apoptosis 2 0.6.
`CNC[C@H]1Oc2ccc(NS(C)(=O)=O)cc2CC(=O)N([C@H](C)CO)C[C@@H]1C` gave A1 apoptosis 2 -0.8.
`CNC[C@H]1Oc2ccc(NC(=O)C3CCCCC3)cc2CC(=O)N([C@@H](C)CO)C[C@@H]1C` gave A1 apoptosis 2 1.8.
Screening C[C@@H]1CN([C@@H](C)CO)C(=O)Cc2cc(NC(=O)Cn3cnnn3)ccc2O[C@@H]1CN(C)Cc1ccc(C(F)(F)F)cc1 returned A1 apoptosis 2 0.2.
For CC(=O)NCCCC[C@@H]1NC(=O)[C@@H]2C[C@H](C(=O)NCc3ccc(F)cc3)[C@H](c3ccc(O)cc3)N2C1=O the results were A1 apoptosis 2 -0.3.
For COc1ccc(NC(=O)Nc2cccc3c2O[C@H](CN(C)Cc2ccncc2)[C@H](C)CN([C@@H](C)CO)C3=O)cc1 the results were A1 apoptosis 2 -0.3.
Screening COc1ccc(NC(=O)Nc2ccc3c(c2)CC(=O)N([C@H](C)CO)C[C@@H](C)[C@H](CN(C)C(=O)Nc2cccc4ccccc24)O3)cc1 returned A1 apoptosis 2 0.1.
Screening C[C@H](CO)N1C[C@H](C)[C@@H](CN(C)S(C)(=O)=O)Oc2ccc(NC(=O)C3CC3)cc2C1=O returned A1 apoptosis 2 1.7.
Screening COc1ccc(NC(=O)N(C)C[C@H]2Oc3c(NS(=O)(=O)c4ccc(Cl)cc4)cccc3C(=O)N([C@H](C)CO)C[C@@H]2C)cc1 returned A1 apoptosis 2 -0.3.
Screening C[C@@H]1CN([C@@H](C)CO)C(=O)Cc2cc(NC(=O)c3ccncc3)ccc2O[C@@H]1CN(C)S(=O)(=O)c1cccs1 returned A1 apoptosis 2 0.0.
C[C@@H]1CCCCO[C@H](CN(C)C(=O)NC2CCCCC2)[C@H](C)CN([C@@H](C)CO)C(=O)c2cc(NC(=O)c3ccccc3)ccc2O1 was read as A1 apoptosis 2 -0.8.
For O=C(N/N=C/c1ccc(-c2ccccc2)c(F)c1)c1ccccc1O the results were A1 apoptosis 2 -8.5.
Screening C[C@@H]1CN([C@@H](C)CO)C(=O)c2cc(NC(=O)CCC(F)(F)F)ccc2O[C@@H]1CN(C)C(=O)Nc1ccccc1 returned A1 apoptosis 2 -0.8.
O=C(CCCCC(=O)N/N=C/c1cc(Br)cs1)NO was read as A1 apoptosis 2 -1.1.
C[C@H]1CN([C@@H](C)CO)C(=O)c2cc(NC(=O)Cc3cn(C)c4ccccc34)ccc2O[C@@H]1CN(C)CC1CC1 was read as A1 apoptosis 2 -1.2.
For CN(C)CCCOc1ccc(/C=N/NC(=O)c2ccc(C(=O)NO)cc2)cc1 the results were A1 apoptosis 2 0.5.
For C[C@H]1CN([C@@H](C)CO)C(=O)c2cc(NC(=O)Cc3cn(C)c4ccccc34)ccc2O[C@H]1CN(C)Cc1ccc(-c2ccccc2)cc1 the results were A1 apoptosis 2 -1.3.

Gathered by group, the compounds so far with a CF3 group.
For C[C@@H]1CN([C@H](C)CO)C(=O)c2cccc(NC(=O)NC3CCCCC3)c2O[C@H]1CN(C)Cc1ccc(C(F)(F)F)cc1 the results were A1 apoptosis 2 0.1.
Screening C[C@@H]1CN([C@@H](C)CO)C(=O)Cc2cc(NC(=O)Cn3cnnn3)ccc2O[C@@H]1CN(C)Cc1ccc(C(F)(F)F)cc1 returned A1 apoptosis 2 0.2.
Screening C[C@@H]1CN([C@@H](C)CO)C(=O)c2cc(NC(=O)CCC(F)(F)F)ccc2O[C@@H]1CN(C)C(=O)Nc1ccccc1 returned A1 apoptosis 2 -0.8.

Continuation:
COc1ccc(CN(C)C[C@H]2Oc3ccc(NS(=O)(=O)c4ccc(F)cc4)cc3C(=O)N([C@H](C)CO)C[C@H]2C)cc1 was read as A1 apoptosis 2 0.4.
C[C@@H]1CN([C@@H](C)CO)C(=O)Cc2cc(N(C)C)ccc2O[C@@H]1CN(C)S(=O)(=O)c1cccs1 was read as A1 apoptosis 2 0.2.
Screening COc1ccc(NC(=O)N(C)C[C@H]2Oc3c(NC(=O)NC(C)C)cccc3C(=O)N([C@@H](C)CO)C[C@H]2C)cc1 returned A1 apoptosis 2 -0.2.
`C[C@@H]1CCCCO[C@@H](CN(C)C(=O)Nc2ccc(F)cc2)[C@H](C)CN([C@@H](C)CO)C(=O)c2cc(NS(=O)(=O)c3cn(C)cn3)ccc2O1` gave A1 apoptosis 2 0.3.
For C[C@@H]1CN([C@H](C)CO)C(=O)Cc2cc(NS(C)(=O)=O)ccc2O[C@H]1CN(C)S(=O)(=O)c1cn(C)cn1 the results were A1 apoptosis 2 0.1.
C[C@@H]1CCCCO[C@@H](CN(C)Cc2ccc(Cl)c(Cl)c2)[C@H](C)CN([C@@H](C)CO)C(=O)c2cc(NC(=O)Cc3ccccc3)ccc2O1 was read as A1 apoptosis 2 0.9.
Screening COc1cccc(NC(=O)N(C)C[C@@H]2OCc3cn(nn3)CCCC(=O)N([C@@H](C)CO)C[C@@H]2C)c1 returned A1 apoptosis 2 0.7.
`COc1ccc(S(=O)(=O)N(C)C[C@H]2OCCCC[C@@H](C)Oc3ccc(NS(=O)(=O)c4ccccc4)cc3C(=O)N([C@@H](C)CO)C[C@H]2C)cc1` gave A1 apoptosis 2 0.5.
`O=C(CCCCCCC(=O)Nc1ccccc1O)N/N=C/c1ccc(-c2cccc(Cl)c2)o1` gave A1 apoptosis 2 -1.0.
For Cc1noc(C)c1S(=O)(=O)N(C)C[C@H]1OCCCC[C@@H](C)Oc2ccc(NC(=O)C3CCCCC3)cc2C(=O)N([C@@H](C)CO)C[C@H]1C the results were A1 apoptosis 2 0.3.
For Cc1ccc(S(=O)(=O)Nc2ccc3c(c2)C(=O)N([C@H](C)CO)C[C@@H](C)[C@H](CN(C)Cc2ccc(C(=O)Nc4ccccc4N)cc2)O3)cc1 the results were A1 apoptosis 2 1.0.
Screening C[C@H](CO)N1C[C@H](C)[C@H](CN(C)S(C)(=O)=O)Oc2c(NC(=O)Nc3ccc(F)cc3)cccc2C1=O returned A1 apoptosis 2 -0.6.
Screening C[C@H](CO)N1C[C@H](C)[C@H](CN(C)Cc2ccc(C(F)(F)F)cc2)OCc2cnnn2CCCC1=O returned A1 apoptosis 2 -0.6.
For COc1ccc(NC(=O)Nc2ccc3c(c2)CC(=O)N([C@H](C)CO)C[C@@H](C)[C@@H](CN(C)S(=O)(=O)c2ccc(C)cc2)O3)cc1 the results were A1 apoptosis 2 1.6.
For C[C@@H]1CN([C@H](C)CO)C(=O)Cc2cc(NC(=O)Cn3cnnn3)ccc2O[C@H]1CN(C)S(=O)(=O)c1ccc(F)cc1 the results were A1 apoptosis 2 -1.1.
`COc1ccc(CN(C)C[C@@H]2OCCCC[C@H](C)Oc3ccc(NS(=O)(=O)c4ccccc4)cc3C(=O)N([C@@H](C)CO)C[C@H]2C)cc1` gave A1 apoptosis 2 0.0.
Screening C[C@H](CO)N1C[C@H](C)[C@@H](CN(C)CC2CC2)Oc2c(NS(C)(=O)=O)cccc2C1=O returned A1 apoptosis 2 -0.2.
For C[C@@H]1CCCCO[C@@H](CN(C)C(=O)CCC(F)(F)F)[C@H](C)CN([C@H](C)CO)C(=O)c2cc(NC(=O)c3ccncc3)ccc2O1 the results were A1 apoptosis 2 -0.5.
For C[C@@H]1CN([C@H](C)CO)C(=O)Cc2cc(NC(=O)c3ccncc3)ccc2O[C@H]1CN(C)CC1CC1 the results were A1 apoptosis 2 -0.2.
`C[C@@H]1CN([C@@H](C)CO)C(=O)Cc2cc(NC(=O)CCN3CCOCC3)ccc2O[C@@H]1CN(C)C(=O)Nc1ccc(F)cc1` gave A1 apoptosis 2 -0.8.

Next part, overlapping the part above by 4 compounds.
Screening C[C@H](CO)N1C[C@H](C)[C@@H](CN(C)CC2CC2)Oc2c(NS(C)(=O)=O)cccc2C1=O returned A1 apoptosis 2 -0.2.
For C[C@@H]1CCCCO[C@@H](CN(C)C(=O)CCC(F)(F)F)[C@H](C)CN([C@H](C)CO)C(=O)c2cc(NC(=O)c3ccncc3)ccc2O1 the results were A1 apoptosis 2 -0.5.
For C[C@@H]1CN([C@H](C)CO)C(=O)Cc2cc(NC(=O)c3ccncc3)ccc2O[C@H]1CN(C)CC1CC1 the results were A1 apoptosis 2 -0.2.
`C[C@@H]1CN([C@@H](C)CO)C(=O)Cc2cc(NC(=O)CCN3CCOCC3)ccc2O[C@@H]1CN(C)C(=O)Nc1ccc(F)cc1` gave A1 apoptosis 2 -0.8.
For O=C(C1=C[C@H](c2ccccc2)C[C@H](OCCCCO)O1)N1CCOCC1 the results were A1 apoptosis 2 0.4.
For Cc1noc(C)c1NC(=O)N(C)C[C@@H]1Oc2c(NS(=O)(=O)c3ccc(Cl)cc3)cccc2C(=O)N([C@@H](C)CO)C[C@H]1C the results were A1 apoptosis 2 0.0.
For C[C@@H]1CN([C@@H](C)CO)C(=O)Cc2cc(N(C)C)ccc2O[C@@H]1CN(C)S(=O)(=O)c1ccc(F)cc1 the results were A1 apoptosis 2 1.6.
`Cc1noc(C)c1S(=O)(=O)N(C)C[C@@H]1Oc2ccc(NC(=O)NC3CCCCC3)cc2CC(=O)N([C@H](C)CO)C[C@@H]1C` gave A1 apoptosis 2 0.9.
C[C@@H]1CN([C@H](C)CO)C(=O)Cc2cc(NC(=O)Nc3ccc(F)cc3)ccc2O[C@@H]1CN(C)Cc1ccccc1 was read as A1 apoptosis 2 0.6.
`C[C@H]1CN([C@@H](C)CO)C(=O)c2cccc(NC(=O)Nc3ccc(C(F)(F)F)cc3)c2O[C@@H]1CN(C)Cc1ccc(C(=O)O)cc1` gave A1 apoptosis 2 -0.8.
C[C@@H]1CN([C@@H](C)CO)C(=O)c2cc(NC(=O)Nc3ccc(F)cc3)ccc2O[C@@H](C)CCCCO[C@@H]1CN(C)S(=O)(=O)c1cn(C)cn1 was read as A1 apoptosis 2 -0.1.
C[C@@H]1CN([C@H](C)CO)C(=O)Cc2cc(NS(=O)(=O)c3ccccc3)ccc2O[C@H]1CN(C)S(=O)(=O)c1cn(C)cn1 was read as A1 apoptosis 2 -1.5.
Screening C[C@H]1CCCCO[C@H](CN(C)C(=O)Nc2ccccc2)[C@@H](C)CN([C@@H](C)CO)C(=O)c2cc(NS(C)(=O)=O)ccc2O1 returned A1 apoptosis 2 -1.0.
`CCO[C@H]1OC(C(=O)O)=C[C@@H](c2ccc(C(F)(F)F)cc2)[C@@H]1CCCO` gave A1 apoptosis 2 0.7.
O=C(O)C1=C[C@H](c2ccccc2)C[C@H](OCc2ccc(CO)cc2)O1 was read as A1 apoptosis 2 -1.4.
C[C@@H]1CCCCO[C@H](CN(C)C(=O)CCC(F)(F)F)[C@H](C)CN([C@@H](C)CO)C(=O)c2cc(NC(=O)Nc3ccccc3)ccc2O1 was read as A1 apoptosis 2 -0.3.
COc1ccc(S(=O)(=O)Nc2cccc3c2O[C@H](CN(C)CC2CC2)[C@H](C)CN([C@@H](C)CO)C3=O)cc1 was read as A1 apoptosis 2 -0.3.
For CCCN(C)C[C@H]1OCc2cnnn2CCCC(=O)N([C@H](C)CO)C[C@@H]1C the results were A1 apoptosis 2 -0.5.
Screening C[C@@H]1CN([C@H](C)CO)C(=O)Cc2cc(NC(=O)CCC(F)(F)F)ccc2O[C@@H]1CN(C)S(=O)(=O)c1cn(C)cn1 returned A1 apoptosis 2 -0.7.
Screening C[C@@H]1CCCCO[C@H](CN(C)Cc2ccc(C(=O)O)cc2)[C@H](C)CN([C@H](C)CO)C(=O)c2cc(NS(=O)(=O)c3cccs3)ccc2O1 returned A1 apoptosis 2 2.3.
Screening C[C@H]1CN([C@@H](C)CO)C(=O)c2cc(NC(=O)Cc3cn(C)c4ccccc34)ccc2O[C@@H]1CN(C)Cc1ccc(Oc2ccccc2)cc1 returned A1 apoptosis 2 -0.1.
C[C@@H]1CN([C@@H](C)CO)C(=O)c2cc(NS(=O)(=O)c3ccc(Cl)cc3)ccc2O[C@H]1CN(C)S(=O)(=O)c1ccccc1 was read as A1 apoptosis 2 0.0.
For Cc1noc(C)c1S(=O)(=O)N(C)C[C@@H]1Oc2ccc(NC(=O)Cn3cnnn3)cc2CC(=O)N([C@H](C)CO)C[C@@H]1C the results were A1 apoptosis 2 -0.1.
Screening COc1ccc(NC(=O)Nc2ccc3c(c2)C(=O)N([C@H](C)CO)C[C@@H](C)[C@@H](CN(C)C(=O)c2ccccc2)OCCCC[C@H](C)O3)cc1 returned A1 apoptosis 2 1.0.
For Cc1noc(C)c1NC(=O)N(C)C[C@@H]1OCCCC[C@@H](C)Oc2ccc(NS(=O)(=O)c3cn(C)cn3)cc2C(=O)N([C@H](C)CO)C[C@@H]1C the results were A1 apoptosis 2 -0.2.
For C[C@@H]1CN([C@H](C)CO)C(=O)c2cc(NS(=O)(=O)c3cn(C)cn3)ccc2O[C@@H](C)CCCCO[C@@H]1CN(C)C(=O)c1ccccc1 the results were A1 apoptosis 2 -0.7.
`C[C@@H]1CN([C@@H](C)CO)C(=O)c2cccc(NC(=O)C3CC3)c2O[C@H]1CN(C)Cc1ccc(Cl)c(Cl)c1` gave A1 apoptosis 2 0.6.
